Screening results deposited in PubChem BioAssay by several laboratories.
CBX7 AlphaScr – inhibitors of human CBX7 binding to H3K27me3 peptide | O95931 | AlphaScreen His6-CBX7 / biotin-H3K27me3 peptide binding; stronger effect = lower value | normalised signal (fraction of DMSO) (concentration not given with the values) | actives 1.1% (n = 66,000); in the data active = normalised signal below about 0.5;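 also: 100 nL library stock added to about 20 µL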
Target sequence (O95931 whole entry, looked up): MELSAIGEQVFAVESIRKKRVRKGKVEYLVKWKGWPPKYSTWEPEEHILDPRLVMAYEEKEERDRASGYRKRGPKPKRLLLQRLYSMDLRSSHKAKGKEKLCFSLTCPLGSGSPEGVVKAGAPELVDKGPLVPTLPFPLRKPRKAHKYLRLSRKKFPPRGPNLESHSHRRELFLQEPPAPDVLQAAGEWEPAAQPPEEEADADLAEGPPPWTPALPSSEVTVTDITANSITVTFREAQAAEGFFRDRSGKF
CBX7 AlphaScr z-score – recorded beside CBX7 AlphaScr, whose call it bears; z-score; measured here: z-score of CBX7 signal; some inactives read as strong as hits; reference of the scale not given here;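 same signal on another scale; lower means less binding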
Active calls of the source: *; & = joins results of further samples. This is a subset; rates above refer to the full screens.

SMILES	CBX7 AlphaScr	CBX7 AlphaScr z-score
COc1ccc(Br)cc1C1NC(=O)c2c(sc3c2CCCC3)N1 (stereo not drawn)	0.854	-2.84
Cc1cccc(NC(=O)c2cnc3sccn3c2=O)c1	1.06	0.675
N#Cc1nc(-c2ccccc2F)oc1N1CCCC1	0.957	-0.486
CCCC(=O)NCc1nc2ccccc2n1CC(C)C	1.23	2.35
Cc1ccc(-c2nnc(N3CCCCC3)c3ccccc23)cc1S(=O)(=O)NCc1nc2ccccc2[nH]1	0.882	-3.01
Cc1cc(N2CCC(C(=O)NC(C)c3ccccc3)CC2)n2nc(C)c(-c3ccc(Cl)cc3)c2n1 (stereo not drawn)	1.01	0.668
Cc1ccc(NC(=O)CN(C)S(=O)(=O)c2cnc[nH]2)c(Cl)c1	1.1	0.936
Cc1ccc(-c2nc(NC(=O)C(C(C)C)N3C(=O)c4ccccc4C3=O)sc2C)cc1 (stereo not drawn)	0.761	-6.42
COc1cccc(-c2cc(C(F)(F)F)nc(N3CCc4ccccc4C3)n2)c1	1.29	11.6
O=C(CCn1nc(-c2ccccc2)ccc1=O)NCc1ccccc1Cl	0.973	-0.8
O=c1c2c(-c3ccccc3)csc2ncn1Cc1csc(-c2ccc(Cl)cc2)n1	0.981	-0.256
O=S(=O)(c1ccc(-n2ccc(-c3ccc(Cl)cc3)n2)cc1)N(CCO)CCO	1.16	1.85

Arranged by SMILES length (low to high): part of the list above
SMILES	CBX7 AlphaScr	CBX7 AlphaScr z-score
N#Cc1nc(-c2ccccc2F)oc1N1CCCC1	0.957	-0.486
COc1ccc(Br)cc1C1NC(=O)c2c(sc3c2CCCC3)N1 (stereo not drawn)	0.854	-2.84
O=S(=O)(c1ccc(-n2ccc(-c3ccc(Cl)cc3)n2)cc1)N(CCO)CCO	1.16	1.85

The list goes on:
SMILES	CBX7 AlphaScr	CBX7 AlphaScr z-score
COc1ccccc1CNC(=O)c1cnn2c(C)c(Cc3ccc(F)cc3)c(C)nc12	1.03	0.758
Cc1cc(N2C(=O)c3ccc(C(=O)NCCC4=CCCCC4)cc3C2=O)no1	1.11	2.68
CCOc1ccc(NC(=O)c2cccc(NC3=NC4CS(=O)(=O)CC4S3)c2)cc1 (stereo not drawn)	1.02	0.769
O=C(Nc1cc(F)ccc1F)c1cc2sccc2n1Cc1ccc(F)cc1	1.11	2.81
COCCCNC(=O)c1ccc2c(c1)nc(C)n2-c1ccc(OC)cc1	1.06	2.04
COc1ccc(N2CCN(C(=O)CCC(=O)Nc3ccc4nc(N5CCCCC5)cc(C)c4c3)CC2)cc1	0.969	-0.55
Cc1cc(C)c(C)c(OCc2nc(-c3ccccn3)no2)c1	0.975	-0.723
O=C(CN1CCN(Cc2ccc(Cl)cc2)C1=O)NCC1COc2ccccc2O1 (stereo not drawn)	0.767	-3.35
Cc1cc(Nc2cccc(Cl)c2)nc(N2CCOCC2)n1	1.13	0.456
O=C(CSc1nccn1-c1ccc(F)cc1)NCc1ccc2c(c1)OCO2	0.9	-0.352
COc1ccc(S(=O)(=O)N2CCC(C(=O)NCc3ccccc3Cl)CC2)cc1	1.02	0.754
Cc1ccc(-c2ccc(=O)n(CCC(=O)NCc3cccnc3)n2)cc1	1.01	0.271
O=C(CC1C(=O)N(c2ccccc2)C(=O)N1Cc1cccs1)Nc1ccc(F)cc1 (stereo not drawn)	0.932	-0.296
COc1cccc(-c2nc(SCC(=O)Nc3nccs3)c(-c3ccc(Cl)cc3)[nH]2)c1	0.923	-2.05
CCn1c(C(=O)N2CCC(C(=O)NCCCN3CCN(C)CC3)CC2)cc2sccc21	1.15	0.682
CCCCOc1ccc(C(=O)Nc2ccc(Cl)c(-c3nc4ncccc4o3)c2)cc1	0.975	-0.508
CC(Oc1ccc(F)cc1)C(=O)Nc1c(C(=O)c2ccccc2)oc2ccccc12 (stereo not drawn)	1.35	4.82
CC1(C)CC(=O)c2c(nn(-c3ccccc3)c2-c2cccc(Br)c2)C1	0.795	-2.03
O=C(O)c1cnn2c(C(F)(F)F)cc(-c3ccc(Br)cc3)nc12	1.09	2.32
Cc1c(C(=O)N2CCCCC2)sc2ncnc(N3CCN(c4ccccn4)CC3)c12	0.833	-2.34
Cc1cc(C)c2c(n1)SCC(=O)N2Cc1nc(-c2ccccc2Cl)oc1C	0.735	-1.05
COc1ccc(C)cc1NC(=O)CNC(=O)Cn1ccc2ccccc2c1=O	1.01	0.0554
O=C(c1cc(-c2ccc(Cl)cc2)on1)N1CCCCCC1	1.04	0.69
COc1cc(-n2cnc3cc(C(=O)NCc4cccnc4)ccc32)cc(OC)c1OC	1.05	0.581
Clc1cccc(-c2nn3c(-c4ccccc4)nnc3s2)c1	1.07	2.71
Cc1sc2ncn(CC(=O)NCc3cccs3)c(=O)c2c1S(=O)(=O)N1CCC(C)CC1	1.05	2.03
CN(C(=O)Cc1ccc(NC2=NC3CS(=O)(=O)CC3S2)cc1)C1CCCCC1 (stereo not drawn)	0.963	-0.815
COc1ccc(-c2nc(CS(=O)(=O)CC(=O)NCc3cccnc3)c(C)o2)cc1	1.02	0.442
OC(COc1ccccc1)CN1CCNCC1 (stereo not drawn)	0.835	-1.8
CCCN(CCC)CCNC(=O)C1CCN(c2nc3ccc(CC)cc3s2)CC1	1.58	6.37
O=C(C1CC1)N1CCc2cc(S(=O)(=O)Nc3cccc(Cl)c3)ccc21	0.993	-0.177
COc1ccc(-n2nc(C(=O)N3CCCCC3)c3ccccc3c2=O)c(OC)c1	0.968	-0.851
COc1ccc(NC(=O)CSc2nc(-c3ccccc3)[nH]c2-c2ccc(C)cc2)cc1OC	0.799	-9.55
CCOC(=O)c1c(NC(=O)c2ccccc2C(=O)O)sc2c1CCCC2	0.975	-0.0248
Cc1ccc(C)c(Nc2nc3nonc3n3cnnc23)c1	0.962	-0.416
CC(C)CCOC(=O)c1ccc(-c2n[nH]c(=O)c3ccccc23)cc1	1.12	1.46
CCCc1ccc(-c2ccc(C(=O)Nc3ccc4ccccc4c3)cc2)nc1	1.14	1.35
Cc1ccc(-c2nc3cc(C(F)(F)F)cc(Cl)c3nc2-c2ccc(C)cc2)cc1	1.52	3.42
CCOC(=O)c1c(C)n(C)c2ccc(OCC(O)CN(CC)CC)cc12 (stereo not drawn)	1.04	1.32
O=C(Nc1nnc(COc2ccc(Br)cc2)s1)c1ccc2c(c1)OCO2	1.02	0.0786
Cn1nc(-c2ccc(Cl)cc2)c2cc(C(=O)Nc3ccc4c(c3)OCCO4)sc21	0.913	-1.7
Cc1nn(CCC#N)c2c1C1C(C2)C1(C)C (stereo not drawn)	1.04	1.07
Cn1cc(Cl)nc1C(O)c1ccccc1 (stereo not drawn)	0.984	-0.17
Cc1ccc2oc(Nc3nc(C)cc(C)n3)nc2c1	1	0.000494
CCn1c(C(=O)Nc2c(C)cc(C)cc2C)cc2sc(Cl)cc21	1.02	0.694
CC(=O)Nc1ccc(NC(=O)c2cc(C)nn2-c2ccccc2)cc1	1.02	0.59
CCOC(=O)c1cnc2c(C)cc(C)cc2c1Nc1cccc(C)c1C	0.99	-0.0989
O=C(NCc1ccccc1)c1cc(=O)[nH]c2ccc(S(=O)(=O)N3CCCCCC3)cc12	1.03	0.356
CCOC(=O)c1c(C)n(C)c2ccc(OCC(O)CNC(CC)CO)cc12 (stereo not drawn)	1.05	1.74
CCOc1cc2c(cc1OCC)C(c1ccccc1)NCC2 (stereo not drawn)	1.14	1.36
CC(C)N1C(=O)CCC1C(=O)NCc1ccc2c(c1)OCO2 (stereo not drawn)	1.07	1.32
CC(C)(C)c1ccc(C(=O)NCCN=C2NS(=O)(=O)c3ccccc32)cc1	1	0.0916
COc1ccc2cc(CCNC(=O)c3cc4ccccc4o3)c(=O)[nH]c2c1	1.03	0.742
CCC1=Nc2cc(C(=O)NCCc3ccccc3)ccc2Sc2ccc(C)cc21	0.852	-2.12
COc1ccc(CNc2sc3c(c2C(=O)Nc2ccccc2OC)CCCC3)cc1	0.592	-5.72
CCOC(=O)c1cnc2ccc(OC)cc2c1Nc1cccc(Cl)c1	0.815	-0.814
Cc1ccc2nc(-c3cccs3)c(Nc3ccccc3C)n2c1	0.903	-4.65
CCOc1ccc(-c2nnc(-c3ccc4c(c3)OCO4)o2)cc1	0.99	-0.336
Cc1ccc(C)c(C(=O)N(Cc2nc(-c3ccc(Cl)cc3)no2)C(C)C)c1	0.846	-1.52
COc1ccc(-c2nnc(NC(=O)c3ccccc3Cl)s2)cc1	1.24	0.828

Additional results follow.
SMILES	CBX7 AlphaScr	CBX7 AlphaScr z-score
CC1(C)CC(=O)c2sc(NS(=O)(=O)c3ccc(Cl)cc3)nc2C1	1.02	0.517
CCOc1ccccc1NC(=O)C1CCN(S(=O)(=O)c2cccs2)CC1	0.963	-0.676
CC1CC(C)CN(c2nc3nonc3nc2Nc2ccc3c(c2)OCO3)C1 (stereo not drawn)	0.986	-0.377
CC1CCN(S(=O)(=O)c2ccc3nc(-c4ccccn4)cc(C(=O)NC4CCCC4)c3c2)CC1	1	0.118
Cc1ccc(NC(=O)c2cc(S(=O)(=O)N3CCCCCC3)ccc2F)cc1C	0.777	-1.7
N#Cc1nc(COc2ccc(Br)cc2)oc1N1CCCCCC1	0.416*	-3.65*
CCOc1ccccc1Nc1nc(-c2c(C)nc3sccn23)cs1	1.02	0.736
CCOc1ccc(OCC)c(NC(=O)c2csc3c2CCCC3)c1	1.04	1.71
CCCNC(=O)C1CCCN(c2nc3ccccc3[nH]2)C1 (stereo not drawn)	0.818	-2.1
COc1ccc(Br)cc1CNC(=O)Nc1cccs1	1.03	1.55
O=C(CSc1oc(-c2cccs2)nc1S(=O)(=O)c1ccc(F)cc1)Nc1ccc(F)cc1	0.893	-0.185
Cc1ccc(NC(=O)Cc2c(C(=O)O)[nH]c3ccccc23)cc1F	1.01	0.296

A second format for 3 compounds above:
smiles,CBX7 AlphaScr,CBX7 AlphaScr z-score
CCCc1ccc(-c2ccc(C(=O)Nc3ccc4ccccc4c3)cc2)nc1,1.14,1.35
O=S(=O)(c1ccc(-n2ccc(-c3ccc(Cl)cc3)n2)cc1)N(CCO)CCO,1.16,1.85
O=C(CN1CCN(Cc2ccc(Cl)cc2)C1=O)NCC1COc2ccccc2O1 (stereo not drawn),0.767,-3.35

Five entries out of the list above, ordered by their value in CBX7 AlphaScr z-score, high to low:
| SMILES | CBX7 AlphaScr z-score |
| --- | --- |
| COc1ccc(Br)cc1CNC(=O)Nc1cccs1 | 1.55 |
| CCOc1ccccc1Nc1nc(-c2c(C)nc3sccn23)cs1 | 0.736 |
| CC1CC(C)CN(c2nc3nonc3nc2Nc2ccc3c(c2)OCO3)C1 (stereo not drawn) | -0.377 |
| CCOc1ccccc1NC(=O)C1CCN(S(=O)(=O)c2cccs2)CC1 | -0.676 |
| Cc1ccc(NC(=O)c2cc(S(=O)(=O)N3CCCCCC3)ccc2F)cc1C | -1.7 |

Next part:
SMILES	CBX7 AlphaScr	CBX7 AlphaScr z-score
CC(=O)Nc1ccc(C(=O)CC2(O)C(=O)N(C)c3ccccc32)cc1 (stereo not drawn)	1.04	0.0885
COc1cc(NC(=O)c2ccc3c(c2)OCO3)c2ncccc2c1	1.05&1.07	1.33&1.74
Cc1ccnc(Nc2nc(-c3sc(N)nc3C)cs2)c1	0.404*	-11.8*
Cc1c(CCNC(=O)c2cc(S(=O)(=O)N(C)C)c(Cl)cc2Cl)c2ccccc2n1C	0.861	-4.11
Cc1sc2ncn(CC(=O)N3CCc4ccccc4C3)c(=O)c2c1C	1.01	0.0964
Cc1cc(N2CCC(C(=O)Nc3ccccc3Cl)CC2)n2nc(C)c(-c3ccc(Cl)cc3)c2n1	0.993	-0.35
O=C(c1cn(-c2ccc(F)cc2F)c(=O)c2ccccc12)N1CCOCC1	1	-0.00157
Cc1ccc(-c2nc(CS(=O)(=O)CC(=O)Nc3cc(Cl)ccc3Cl)c(C)o2)cc1	0.978	-0.0467
Cc1ccc(OCCn2c(=N)n(C(C)C)c3ccccc32)cc1	0.902	-2.13
CN(C)CCNC(=O)c1ccc2c(c1)ncn2C1CCCCC1	0.966	-0.867
CCCCn1c(CNC(=O)CCC)nc2ccccc21	1.26	2.65
CC1(C)NC(=O)N(CC(O)COc2ccccc2F)C1=O (stereo not drawn)	0.99	-0.311
Cc1ccc(-c2nnc(N3CCCCC3)c3ccccc23)cc1	0.568	-4.87
C=CCN1C(=O)c2ccccc2Sc2ccc(C(=O)NCC3CCCO3)cc21 (stereo not drawn)	0.944	-1.38
O=C(NCCc1c[nH]c2ccc(OCc3ccccc3)cc12)C1CC1	0.592	-0.482
Cc1cccc2c1-c1sc(C(=O)Nc3ccccc3F)cc1CO2	1.7	23.9
Cc1ccc(Nc2c(-c3ccsc3)nc3ccc(Cl)cn23)cc1	0.992	-0.213
CCC1=Nc2cc(C(=O)N3CCCC3)ccc2Sc2ccc(C)cc21	0.819	-2.6
COc1ccc(C(=O)NCCc2nc3ccccc3n2Cc2ccccc2C)cc1OC	1.13	0.964
Cc1ccc2nc(NC(=O)CSc3nnc(CNC(=O)c4ccccc4F)o3)sc2c1	0.988	-0.343
O=C(Cn1cnc2c(nnn2Cc2ccc(F)cc2)c1=O)Nc1ccc(F)cc1F	0.846	-2.53
Cc1ccc(-c2noc(CN(C(=O)COc3ccc(C)cc3Br)C(C)C)n2)cc1	0.947	-0.999
CCC1CCCCN1CCCNC(=O)CN1C(=O)COc2ccccc21 (stereo not drawn)	1.05	1.75
CC1CC(C)CN(CCCNC(=O)c2csc3c2CCCCC3)C1 (stereo not drawn)	1.08	2.02
Cc1cccc(N2C(=O)CC(N3CCN(c4ccccc4Cl)CC3)C2=O)c1 (stereo not drawn)	1.04	0.834
COc1c(Cl)ccc(Cl)c1C(=O)Nc1ccc(F)cc1	1.08	0.136
O=C(Cc1ccccc1)Nc1ccc(-c2nc3ccccc3[nH]2)cc1	1.03	0.734
COc1ccc(S(=O)(=O)N2CC=C(C(=O)Nc3ccc(Cl)cc3)CC2)cc1	1.03	1.6
COc1cc(C(=O)N2CCN(Cc3ccncc3)CC2)cc(OC)c1OC	1.18	4.49
COc1ccc2cc(CCNC(=O)C3CCCC3)c(=O)[nH]c2c1	0.978	-0.543
Cc1ccc(N2CCN(c3ccc4nncn4n3)CC2)c(C)c1	0.977	-0.627
